NS1 function inh: qHTS Assay for Inhibitors of Influenza NS1 Protein Function. S. cerevisiae slowed by influenza A NS1, growth recovery by OD600. Potency, µM (series often up to 46.1 µM), for the others: at the top dose activity, positive = more growth. 270,000 compounds, 0.4% hits; active means well fitted rising curve with a large enough effect; inconclusive means small, poorly fitted or top-dose-only effect; inactive means no such curve, though single readings can be large or run the other way; further: nearly all actives have a fitted effect of over 50% in size
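Recovery from NS1-induced slow growth read by OD600 in budding yeast switched to galactose assay medium (pH 6.0, -URA) at 1:100 dilution. Compound 23 nl per well; the matching strain lacking NS1 serves as control.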
Cruzain Triton: qHTS Assay for Promiscuous and Specific Inhibitors of Cruzain (with detergent); Cruzipain (Trypanosoma cruzi), P25779; purified cruzain, Z-FR-AMC fluorescence, 0.01% Triton; Potency, µM, without a hit: max response, negative = inhibition, hits mostly inhibitors; 200,000 compounds, 0.43% hits;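 further: plate controls were neutral wells for no effect and buffer without enzyme for full effect; nearly all actives have a fitted effect of over 40% in size; top concentration of the series not given in the record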
Target sequence (P25779 123-467 limits assumed): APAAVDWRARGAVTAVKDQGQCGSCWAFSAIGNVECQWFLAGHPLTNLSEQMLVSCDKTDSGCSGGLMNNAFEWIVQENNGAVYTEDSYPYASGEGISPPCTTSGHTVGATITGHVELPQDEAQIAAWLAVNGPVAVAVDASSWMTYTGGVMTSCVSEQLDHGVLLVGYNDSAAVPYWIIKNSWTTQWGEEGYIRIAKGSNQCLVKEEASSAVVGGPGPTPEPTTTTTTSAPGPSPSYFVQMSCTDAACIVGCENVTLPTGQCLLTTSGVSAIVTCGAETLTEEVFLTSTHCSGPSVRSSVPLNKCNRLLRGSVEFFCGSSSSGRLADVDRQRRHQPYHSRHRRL
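Cruzain (1.5 nM) preincubated 15 min at RT with compound in 100 mM sodium acetate pH 5.5, 5 mM DTT, 0.01% Triton X-100. Reaction started with 2 uM Z-FR-AMC; AMC fluorescence (ex 360/em 450 nm) change over 60 s gave rate.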
Cruzain noTriton: qHTS Assay for Promiscuous and Specific Inhibitors of Cruzain (without detergent); Cruzipain (Trypanosoma cruzi), P25779; purified cruzain, Z-FR-AMC fluorescence, no detergent; Potency, µM, for the others: max response, negative = inhibition, usual class: inhibitors; 200,000 compounds, 2.3% hits; AID 1476, 2009;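 further: plate controls were enzyme without inhibitor for no effect and buffer without enzyme for full effect; nearly all actives have a fitted effect of over 40% in size; top concentration of the series not given in the record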
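Detergent-free condition (0.00005% Triton X-100) in acetate buffer pH 5.5 with DTT. 1.5 nM enzyme and compound were pre-mixed 15 min, then 2 uM Z-FR-AMC substrate added; reaction progress from fluorescence change between first and third reads (60 s).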
Numbers without * were called inactive; ? = inconclusive; & = joins results of further samples; ! = not confirmed by another sample. Unless noted, the call rests on the fitted dose curve; in most records, active means well fitted curve in the direction sought with a large enough effect; inconclusive means small, poorly fitted or top-dose-only effect, or another doubt; inactive means no such curve, though single readings can be large; an effect the other way counts as inactive or inconclusive. Potency means the concentration at half of the fitted maximal effect. An excerpt; the hit share may differ from the screen's.

SMILES	NS1 function inh	Cruzain Triton	Cruzain noTriton
CN(C)CCC(=O)[C@@]1(O)CC[C@H]2[C@H]3CC=C4C[C@@H](O)CC[C@]4(C)[C@H]3CC[C@]21C	-15%	-3.0%	5%
Cc1cc2nc([C@H](C)C(=O)c3ccc(Cl)cc3)c(=O)[nH]c2cc1C	0%	1.3%	-5%
C/C(N=NC(=[SH+])SCc1ccccc1)=C1\C=CC=CN1.[Cl][Cu]	2%	5.0%	-8%
N/N=C1/c2ccccc2N[C@H]1OC(=O)Nc1ccccc1	-6%	-10%	-6%
Nc1ncnc2c1ncn2[C@H]1O[C@@H](CO)[C@@H](O)[C@H]1N	-2%	-1.9%	5%
COC(=O)[C@]1(C)CCC(c2ccc(C)cc2)=C(CC(=O)O)C1	-4%	-0.9%	15%
COc1ccc(C[N+](C)(C)N)cc1OC	-1%	1.1%	0%
CS(=N)(=O)CC[C@H](N)P(=O)(O)O (stereo not given in full)	-6%	1.2%	-1%
CC[C@@H](CS(=O)(=O)O)[N+](=O)[O-]	0%	1.9%	-4%
NS(=O)(=O)c1ccc(-c2ccc([As](=O)(O)O)cc2)cc1	-3%	-1.0%	8%
O=C(O)CCC(O)=C1S(=O)(=O)OCCOS1(=O)=O	-3%	-3.1%	7%
C[n+]1c(/C=C\c2ccc(O)c3ncccc23)[se]c2ccccc21	2%	-7.5%	2%
C[C@@](O)(CNS(=O)(=O)c1ccccc1)c1ccccc1	0%	3.6%	1%
Nc1ccc(N(S(=O)(=O)c2ccccc2)S(=O)(=O)c2ccccc2)c(Cl)c1	-10%	-4.0%	-8%
COc1cc2c3cc1Oc1c(O)c(OC)cc4c1[C@@H](Cc1ccc(cc1)Oc1cc(ccc1O)C[C@H]3N(C)CC2)N(C)CC4	-5%	-7.1%	-10%

Record cards (already shown):
COc1ccc(C[N+](C)(C)N)cc1OC in the list: NS1 function inh: -1%; Cruzain Triton: 1.1%; Cruzain noTriton: 0%
NS(=O)(=O)c1ccc(-c2ccc([As](=O)(O)O)cc2)cc1 in the list: NS1 function inh: -3%; Cruzain Triton: -1.0%; Cruzain noTriton: 8%

Further structures follow.
SMILES	NS1 function inh	Cruzain Triton	Cruzain noTriton
Nc1cccc2cc(S(=O)(=O)Nc3ccc(C(=O)O)cc3)ccc12	9%	0.0%	-1%
C[C@H](CCC(=O)O)[C@H]1CC[C@@H]2[C@@H]3CC[C@H]4C[C@@H](O)CC[C@@]4(C)[C@@H]3C[C@H](O)[C@@]21C	6%	1.6%	?
COc1ccc(CC[N@+]2(C)COc3cc4oc(=O)cc(C)c4cc3C2)cc1OC	-5%	1.7%	7%
O=C1Nc2ccccc2[C@]1(O)Cc1ccccn1	-3%	3.6%	0%
c1ccc(C[N+]23CN4CN(CN(C4)C2)C3)cc1	-3%	1.2%	8%
O=P(O)(O)O[C@@H]1O[C@H](CO)[C@@H](O)[C@H](O)[C@@H]1O	-5%	0.9%	-2%
CC(C)(N)CO[C@H]1C[C@H]2CC[C@@]1(C)C2(C)C	-2%	0.7%	-4%
CCN(CC)CCn1ncc2c(N)ncnc21	0%	3.5%	-1%
O=S(=O)(c1cccc(C(F)(F)F)c1)N1c2ccccc2-n2cccc2[C@H]1c1cccnc1	-3%	-1.0%	29%
[N-]=[N+]=CC(=O)CC[C@H](N)C(=O)O	-1%	0.9%	-4%
NCC[C@H](N)C(=O)O	-1%	0.1%	-10%
COc1cc2ccc([C@H](C)NCC#N)cc2cc1OC	-7%	2.9%	1%
O=C(O)[C@H]1CCc2ccc3ccccc3c2[C@H]1c1cccc2ccccc12	-3%	-5.0%	0%
C=C(C)c1ccccc1 (tested in a mixture with another compound)	-3%	2.4%	-25%
c1ccc(-c2cc(-c3cc(-c4ccccn4)[nH]n3)n[nH]2)nc1	0%	7.4%	2%
N[C@@H](Cc1nn[nH]n1)C(=O)O	-3%	6.0%	0%
Cc1ccc(-[n+]2cc(=O)o[nH]2)cc1	0%	0.7%	-2%
CC(=O)CSCc1ccccn1	0%	-0.6%	-8%
CC(=O)[C@]1(O)CC[C@@H]2[C@H]3C[C@@H](C)C4=CC(=O)CC[C@@]4(C)C3[C@@H](O)C[C@]21C (stereo not given in full)	-3%	-1.6%	-4%
CC1(C)[C@@H]2CC[C@]1(CC(=O)O)[C@H](Cl)C2	-4%	6.1%	-6%
CN1C[C@H](C(=O)N[C@@]2(C)O[C@@]3(O)[C@H]4CCCN4C(=O)[C@@H](Cc4ccccc4)N3C2=O)C=C2c3cccc4[nH]cc(c34)C[C@@H]21	16%	1.7%	-12%
NCCc1ccc(S(=O)(=O)O)cc1[N+](=O)[O-]	-3%	-0.9%	3%
CC(=NC1CCCCC1)c1ccccc1O	7%	0.2%	0%
O=C(O)[C@@H]1CCCN1Cc1c[nH]c2ccccc12	-1%	4.6%	4%
C(=N/Nc1nnc2c(n1)[nH]c1ccccc12)/c1cccnc1	16%	-4.3%	-1%
Cc1noc(NC(=O)Nc2ccccc2F)c1C#N	-11%	2.6%	4%
Clc1ccc2c(NCCNc3ccnc4cc(Cl)ccc34)ccnc2c1	-6%	0.6%	4%
Nc1nc(C(=O)O)c(N=Nc2ccccc2)c(=O)[nH]1	-4%	3.1%	-9%
CN(C)CCCSc1nc2ccccc2[nH]1	-2%	1.8%	2%
COc1ccc2c(c1)N(CC[C@H]1CCCCN1C)c1ccccc1S2	-8%	-1.6%	-4%
S=P(C1CCCCC1)(C1CCCCC1)[C@H](c1cccnc1)N1CCCC1	-8%	3.9%	-9%
Cn1c(=O)c2[nH]c(CCCCc3nc4c([nH]3)c(=O)n(C)c(=S)n4C)nc2n(C)c1=S	-5%	2.8%	-4%
CC(C)[C@](N)(C(=O)O)c1ccccc1	3%	2.0%	-2%
Cc1[nH]c2c(C)ccc(C)c2c1CC(=O)O	13%	-1.0%	-2%
CC(NC(=O)c1ccccc1)(C(=O)O)C(=O)O	2%	1.0%	8%
CO[C@@H]1/C=C\O[C@]2(C)Oc3c(C)c(O)c4c(O)c(cc(O)c4c3C2=O)NC(=O)/C(C)=C\C=C/[C@H](C)[C@@H](O)[C@H](C)[C@H](O)C(C)[C@H](OC(C)=O)[C@@H]1C (stereo not given in full)	-11%	-0.9%	?
C[N+](C)(C)c1ccc([C@H](N)C(=O)O)cc1	-10%	-4.2%	0%
O=C(CSC1=NCCN1)c1ccccc1	-4%	-3.0%	17%
CCCC(c1cc(C(C)(C)C)c(O)cc1C)c1cc(C(C)(C)C)c(O)cc1C	0%	-0.6%	13%
C=CCSc1nc2ccccc2c(=O)n1Cc1ccco1	-11%	-0.5%	-10%
O=[N+]([O-])c1cccc(/C=N\NC2=CS(=O)(=O)C=C2)c1	-3%	2.1%	3%
COc1ccc2ccccc2c1/C=C\C(=O)c1ccccc1	-14%	-3.7%	-9%
N=C(N)SCc1nc(-c2ccc(Cl)cc2)no1	-6%	-0.2%	-2%
Cc1cc(OCC(=O)O)c(Cl)cc1Cl	3%	-1.6%	0%
Nc1ncnc2c1nc(-c1ccccc1)n2[C@H]1O[C@@H](CO)[C@@H](O)[C@H]1O	0%	-1.0%	3%
O=S(=O)(O)CCCc1cccc2ccccc12	0%	3.5%	-1%
CCOc1ccc(N=NS(=O)(=O)O)cc1	-5%	-3.2%	0%
Cc1ccc(C)c(/C(=N\N=C(N)N)C2CC2)c1	-4%	0.1%	-12%
Cc1ncn(-c2ccccc2O)c1C	0%	-3.4%	1%
CC(CCc1nc2ccccc2s1)(c1ccc(O)cc1)c1ccc(O)cc1	-31%	-4.7%	-6%
CCCCN1CSC(=S)N(Cc2ccccc2)C1	-34%	4.1%	-6%
O=C(O)C[C@H]1OCC=C2CN3CC[C@@]45C6=CC(=O)C(=O)C([N+](=O)[O-])=C6N[C@H]4[C@H]1[C@H]2C[C@@H]35	-8%	2.5%	3%
O=C(NCCO)c1ccc(Cl)cc1	-11%	0.3%	-6%
c1cc2c(c(NC3=NCCN3)c1)CCCC2	-11%	1.8%	24%
Cc1cc(SCC(=O)c2ccccc2)nc2ccccc12	-7%	-1.2%	-4%
CC(C)[C@@H](C)/C=C\[C@@H](C)[C@@H]1CC[C@H]2C3=CC=C4C[C@@H](O)CC[C@]4(C)[C@H]3CC[C@]21C	-1%	1.5%	4%
O=C(c1cc(Br)ccc1O)c1cc(Br)ccc1O	-36%	1.9%	8%
Clc1ccc(Cl)c(Nc2ccnc(SCc3ccccc3)n2)c1	-12%	-5.9%	-12%
O=C1OC2(c3ccc(O)cc3Oc3cc(O)ccc32)c2c1c(-c1ccccc1)c(-c1ccccc1)c(-c1ccccc1)c2-c1ccccc1	?	5.7%	7%
CC1=NN(c2ccc(S(=O)(=O)O)cc2)C(=O)/C1=C\c1ccc(Cl)cc1	0%	5.0%	0%

(list continues)
SMILES	NS1 function inh	Cruzain Triton	Cruzain noTriton
CN(C)CC[C@@H](C(=O)C(C)(C)C)c1ccccn1	-1%	-4.2%	-1%
O=C(O)C(Cl)(c1ccccc1)c1ccccc1	0%	0.1%	8%
CC(C)CN=C(N)N=C(N)N	-3%	-4.7%	2%
CN[C@@H](c1ccncc1)[C@@H](NC)c1ccncc1	0%	0.9%	12%
CC(C)(C)CNCCO	-5%	4.1%	7%
O=S(=O)(O)c1cc(N=Nc2cccc3ccccc23)c(O)c2ncccc12	-3%	3.5µM*	-5%
c1ccc(C2=Nc3ccccc3SC2c2nc3ccccc3[nH]2)cc1 (stereo not given)	-30%	-11%	-29%
O=[N+]([O-])c1ccc2c(c1)c(S(=O)(=O)O)cc1nonc12	-5%	15%	4%
O[C@H](CNc1ccccn1)c1ccccc1	-3%	3.7%	-5%
Nc1nc(-c2cccc([N+](=O)[O-])c2)cc(-c2cc(-c3cccc([N+](=O)[O-])c3)nc(N)n2)n1	-1%	-2.1%	2%
Nc1nc(N)nc(CCCc2nc(N)nc(N)n2)n1	6%	2.5%	4%
Cn1c(=O)c2c(ncn2CCSS(=O)(=O)O)n(C)c1=O	0%	8.9%	15%
Nc1nc(N)[n+]([O-])c(N)c1NCO	13%	-3.5%	12%
COc1ccc(/C=N\NC(=O)O)cc1	-4%	0.1%	2%
CC(C)(C)c1ccc(-c2nnc(SCc3ccc(Cl)cc3)n2-c2cccc(C(F)(F)F)c2)cc1	15%	5.4%	-3%
Nc1c(OCC(=O)O)ccc2cc(S(=O)(=O)O)ccc12	8%	-1.6%	2%
NS(=O)(=O)c1cc2c(cc1Cl)N[C@H](Cc1ccccc1)NS2(=O)=O	0%	-1.6%	1%
C[C@H](CN(C)C)C(O)(c1ccccc1)c1ccccc1	-3%	5.1%	3%
c1ccc(-c2cnc(-c3ccc(-c4ncc(-c5ccccc5)o4)cc3)o2)cc1	-8%	2.8%	-1%
CN(C)c1ccc(C(=C2C=CC(=[N+](C)C)C=C2)c2ccccc2)cc1	-36%	0.0%&-7.3%	25µM*!
CCCS(=O)(=O)O	2%	3.2%	-6%
Cc1cc(Nc2ccc(N=Nc3ccc(O)c4ncccc34)cc2)nc(C)n1	19%	8.1%	4%
Oc1ccc2ccccc2c1Cc1c(O)ccc2ccccc12	-41%	-6.4%	-5%

Three compounds picked at random from those above:
SMILES	NS1 function inh	Cruzain Triton	Cruzain noTriton
Nc1c(OCC(=O)O)ccc2cc(S(=O)(=O)O)ccc12	8%	-1.6%	2%
C[C@H](CN(C)C)C(O)(c1ccccc1)c1ccccc1	-3%	5.1%	3%
NS(=O)(=O)c1cc2c(cc1Cl)N[C@H](Cc1ccccc1)NS2(=O)=O	0%	-1.6%	1%

In another format: entries from further up.
| SMILES | NS1 function inh | Cruzain Triton | Cruzain noTriton |
| --- | --- | --- | --- |
| Cn1c(=O)c2c(ncn2CCSS(=O)(=O)O)n(C)c1=O | 0% | 8.9% | 15% |
| Cc1cc(OCC(=O)O)c(Cl)cc1Cl | 3% | -1.6% | 0% |

As entered above.
COc1ccc(C[N+](C)(C)N)cc1OC in Cruzain Triton is listed with 1.1%
C[C@@](O)(CNS(=O)(=O)c1ccccc1)c1ccccc1 in Cruzain noTriton is listed with 1%
CC(C)(C)c1ccc(-c2nnc(SCc3ccc(Cl)cc3)n2-c2cccc(C(F)(F)F)c2)cc1 in Cruzain noTriton is listed with -3%
CC(=O)CSCc1ccccn1 in NS1 function inh is listed with 0%
Nc1nc(N)nc(CCCc2nc(N)nc(N)n2)n1 in Cruzain Triton is listed with 2.5%
